Nrf2 ARE act: activates Nrf2 signaling; AREc32 ARE-luciferase reporter (MCF7-derived line), luminescence, 24 h; Potency, µM (titrated, usually from 46.1 µM), for inactives: at the highest dose activation, most hits filed as activators; 410,000 tested, 0.31% active; also: % of control where 0% means no effect; nearly all actives have a fitted effect of over 65% in size
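For detection, Steady-Glo was added and plates sat 30 min at RT; before that, AREc32_Fluc cells grown overnight in OPTI-MEM/5% FBS had been treated with 23 nL compound for 24 hr at 37 deg C.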
MCF10A rerep: inducers of DNA re-replication in MCF 10A breast cells. 350,000 tested, 2.9% active. AID 624296. Potency, µM (top dose mostly 46.1 µM), inactives show at the highest dose activity, positive = re-replication, hits mostly activators. MCF 10A DNA re-replication, Hoechst nuclear intensity, 48 h; also: % of control where 0% means no effect; nearly all actives have a fitted effect of over 50% in size
TGFb SMAD3 inh: inhibitors of TGF-b signaling; Potency, µM (highest dose often 46.1 µM), for the others: at the highest dose activity, negative = inhibition, usual class: inhibitors; 410,000 tested, 1.2% active; HepG2 CAGA-GFP TGF-b/SMAD3 reporter, GFP fluorescence, 18 h; TGF-beta stimulated, 500 pg/mL final; also: % is scaled to controls: 0 for no effect and ±100 for the full control effect; nearly all actives have a fitted effect of over 65% in size
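HEPG2 CAGA-GFP reporter cells (1000/well, DMEM with 1% FBS) received compounds, then recombinant TGF-beta at 500 pg/mL final for 18 hours at 37 degrees C. Per-cell GFP summed per well was normalised to unstimulated and stimulated DMSO controls before curve fitting.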
S2 tox: reduces viability in counter-screen for ATXN expression inhibitors; S2 cells (HEK-293 line with an ATXN2-luciferase reporter) viability, CellTiter-Fluor protease fluorescence, 24 h; Potency, µM (series often up to 56.7 µM), hits mostly cytotoxic; 400,000 tested, 0.49% active; AID 651635; also: nearly all actives have a fitted effect of over 40% in size
Nrf2 inh: blocks Nrf2 signaling | A549 ARE-Fluc reporter, luciferase luminescence, 18-24 h | Potency, µM (highest dose often 46 µM), inactives show top-dose activity change, negative = inhibition, usual class: inhibitors | 360,000 tested, 2.1% active | AID 504444; also: % is scaled to controls: 0 for no effect and ±100 for the full control effect; nearly all actives have a fitted effect of over 60% in size
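A549 ARE_Fluc cells (5000/well, 5% FBS OPTI-MEM) pre-incubated 2 h, then treated with compounds 18-24 h at 37C/5% CO2 in concentration-response. CellTiter-Fluor viability read first; BugLite luciferase luminescence after 15 min at room temperature gives Nrf2 activity.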
HepG2 viability: HepG2 cytotoxicity, counter-screen for TGF-b inhibitors | HepG2 CAGA-GFP viability, ATP luminescence, 18 h | Potency, µM (doses to about 46.1 µM), for inactives: at the top dose activity change, negative = cytotoxicity, hits mostly cytotoxic | 410,000 tested, 0.76% active; also: some results filed as inactive show a strong effect at the top dose
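CellTiter-Glo luminescence gave cytotoxicity after 18 hours at 37 degrees C. The cells were HepG2 CAGA-GFP in 1% FBS DMEM, stimulated with 500 pg/mL TGF-beta after compound addition. %Activity was normalised to no-cell wells (complete cell-killing) and DMSO (no toxicity), and curves were fitted and classified.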
ATXN2 expr inh: reduces ATXN2 reporter expression in HEK-293 cells; 360,000 tested, 0.72% active; Potency, µM (series often up to 57 µM), without a hit: at the highest dose activity change, negative = inhibition, actives largely listed as inhibitors; HEK-293 ATXN2-luciferase reporter, luminescence, 24 h; also: % is scaled to controls: 0 for no effect and ±100 for the full control effect; nearly all actives have a fitted effect of over 55% in size
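qHTS (up to 57 uM final) was run with 24 h compound exposure of reporter cells at 37 °C. Each well was multiplexed: SteadyGlo luminescence measured ATXN2-luciferase expression after a fluorogenic Gly-Phe-AFC viability readout (25 uM final).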
A549 tox: kills or reduces viability of A549 cells in Nrf2 counter-screen; A549 ARE-Fluc cells, CellTiter-Fluor viability, 18-24 h; Potency, µM (series often up to 46 µM), without a hit: at the highest dose activity change, negative = cytotoxicity, actives largely listed as inhibitors; AID 504648; 390,000 tested, 0.16% active; also: % is scaled to controls: 0 for no effect and ±100 for the full control effect
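A549 ARE_Fluc cells in 5% FBS OPTI-MEM were exposed to compounds in concentration-response for 18-24 h at 37 deg C. Viability was read by CellTiter-Fluor fluorescence (Ex 405/Em 525) after 30 min, before the luciferase read.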
An asterisk follows results filed as active; i = inactive; ? = inconclusive; . = not tested or not shown; [ ] = dose if it differs, or a comment. Calls follow the shape of the dose curve; as a rule, active = well fitted curve in the direction sought with a large enough effect; inconclusive = small, poorly fitted or top-dose-only effect, or another doubt; inactive = no such curve, though single readings can be large; an effect the other way counts as inactive or inconclusive. Potency is read from the fitted curve at half-maximal effect. An excerpt (hit frequency here may not be typical).

SMILES	Nrf2 ARE act	MCF10A rerep	TGFb SMAD3 inh	S2 tox	Nrf2 inh	HepG2 viability	ATXN2 expr inh	A549 tox
CC(=O)Nc1ccc(-c2csc(-c3cccnc3)n2)cc1	-1.8%	2%	1%	i	?	-38%	-6%	0%
COc1ccc(-c2nc(C)sc2CC(=O)O)cc1OC	-0.2%	5%	7%	i	-19%	-4%	3%	1%
CCC(=O)N1CCC1(C)C(=O)Nc1ccc2scnc2c1 (stereo unspecified)	-0.2%	.	5%	i	.	4%	19%	.
CCN(CC)C(=O)c1[nH]cnc1C(=O)N[C@@H](C)C(=O)OC(C)(C)C	0.2%	-17%	3%	i	3%	-1%	3%	8%
COc1ccc(/C=N/n2cnc3c([nH]c4ccc(F)cc43)c2=O)cc1CSc1ccccn1	-0.5%	?	-24%	?	-20%	5%	-15%	-6%
C[C@H](NC(=O)c1nc[nH]c1C(=O)N[C@H](C)c1ccccc1)C(=O)OC(C)(C)C	-1.1%	18%	-15%	i	?	-3%	6%	1%
Cc1ccc(C2N(c3ccc(Cl)cc3)C(=O)N3CCCN23)cc1 (stereo unspecified)	0.2%	-2%	2%	?	-1%	-38%	8%	-14%
Cc1ccc(S(=O)(=O)N2[C@@H](c3ccc(Br)cc3)C(C(=O)O)=C[C@H]2CC2CCCC2)cc1	-0.3%	?	?	i	-26%	-22%	-14%	1%
COc1ccc(C2CC(=O)Oc3cc(OC)ccc32)cc1 (stereo unspecified)	-0.5%	-11%	-2%	i	2%	0%	0%	-1%
CC[C@@H]1C=C(C(=O)O)[C@H](c2ccc(F)cc2)N1S(=O)(=O)c1ccc(C)cc1	-1.0%	1%	0%	i	-9%	-1%	4%	-5%
Cc1ccc(C2(c3noc(CN4CCC(C(=O)N5CCOCC5)CC4)n3)CCCC2)cc1	0.1%	0%	-1%	i	7%	17%	.	3%
C=CCn1c(=O)c2ccccc2n2c(Sc3nnnn3-c3ccccc3)nnc12	6.3%	26%	-15%	i	3%	-20%	-12%	0%
O=C(COC(=O)Cc1cccs1)Nc1ccccc1F	-0.1%	-2%	-4%	i	2%	8%	0%	-8%
CCOc1ccccc1NS(=O)(=O)c1c[nH]c(C(=O)OC)c1	-0.7%	3%	1%	i	5%	-21%	-10%	12%
CC1=CC(C)C2C(=O)N(CCCN(C)C)C(=O)C2C1 (stereo unspecified)	-0.3%	-5%	?	i	.	12%	-1%	1%
COc1cccc(N/C=C/C(=O)c2ccc(Br)cc2)c1	18%	23%	-15%	i	?	-28%	98%[activator]	-7%
CCOC(=O)C1=C(C)N(C)C(C)=C(C(=O)OCC)C1c1ccsc1	3.3%	3%	?	i	-3%	12%	18%	0%
COc1ccc(C2CC(=O)Oc3cc(C)c(Cl)c(C)c32)cc1 (stereo unspecified)	0.2%	18µM*	-15%	i	2%	-8%	-20%	12%
O=C1OC(c2ccccc2)(c2ccc(O)cc2)c2ccccc21 (stereo unspecified)	7.5%	?	-10%	i	3%	-10%	2%	5%
CC1(C)CC(/C=C/c2ccccc2)=Nc2ccccc2N1	?	?	?	i	10%	-31%	19%	-5%
CC(C)C[C@H](NC(=O)c1nc[nH]c1C(=O)N1CCNCC1)C(=O)OC(C)(C)C	0.3%	14%	-9%	i	2%	0%	-6%	0%
Cc1cc(C)c2ccc(=O)n(CC(=O)N/N=C/c3ccccc3Cl)c2n1	-0.5%	-3%	28%	i	-4%	3%	2%	-4%
COc1ccccc1CC(=O)Nc1ccc(-c2noc(COc3ccc(Cl)c(C)c3)n2)cc1	0.3%	?	1%	i	?	2%	?	-8%
O=C(NN=Cc1c(F)c(F)c(F)c(F)c1F)c1ccc(NS(=O)(=O)c2cccs2)cc1	0.1%	25%	4%	i	5%	-3%	-16%	0%
COc1ccc(-n2c(N)cc(=O)nc2SCC(=O)N2CCN(c3ccccc3)CC2)cc1	-0.2%	-14%	-15%	i	7%	-7%	-3%	7%
O=C(c1cc(COc2ccc(F)c(F)c2)on1)N1CCSCC1	0.1%	1%	-1%	i	9%	2%	60%[activator]	0%
CCCCn1nnnc1C(c1cc2ccccc2o1)N1CCCC1 (stereo unspecified)	0.0%	.	.	?	.	.	10%	.
CC(=O)N/C(=C\c1ccccc1)C(=O)OC(C)C(=O)N(C)c1ccccc1 (stereo unspecified)	2.3%	0%	0%	i	-7%	7%	-9%	2%
CCn1c(SCC(=O)Nc2ccc(Cl)cc2)nnc1C1CC1	0.9%	2%	40%[activator]	i	-4%	26%	2%	6%
CCCC[C@@H]1C=C(C(=O)O)[C@H](c2ccc(Br)cc2)N1S(=O)(=O)c1ccc(C)cc1	2.2%	6%	-19%	i	-12%	-1%	-1%	1%

The last 6 records of the section above are carried over, then new ones follow.
SMILES	Nrf2 ARE act	MCF10A rerep	TGFb SMAD3 inh	S2 tox	Nrf2 inh	HepG2 viability	ATXN2 expr inh	A549 tox
COc1ccc(-n2c(N)cc(=O)nc2SCC(=O)N2CCN(c3ccccc3)CC2)cc1	-0.2%	-14%	-15%	i	7%	-7%	-3%	7%
O=C(c1cc(COc2ccc(F)c(F)c2)on1)N1CCSCC1	0.1%	1%	-1%	i	9%	2%	60%[activator]	0%
CCCCn1nnnc1C(c1cc2ccccc2o1)N1CCCC1 (stereo unspecified)	0.0%	.	.	?	.	.	10%	.
CC(=O)N/C(=C\c1ccccc1)C(=O)OC(C)C(=O)N(C)c1ccccc1 (stereo unspecified)	2.3%	0%	0%	i	-7%	7%	-9%	2%
CCn1c(SCC(=O)Nc2ccc(Cl)cc2)nnc1C1CC1	0.9%	2%	40%[activator]	i	-4%	26%	2%	6%
CCCC[C@@H]1C=C(C(=O)O)[C@H](c2ccc(Br)cc2)N1S(=O)(=O)c1ccc(C)cc1	2.2%	6%	-19%	i	-12%	-1%	-1%	1%
COc1ccccc1Cc1c(-c2ccc(C#N)cc2)nc2ccc(Br)cn12	7.6%	.	-7%	i	.	-23%	5%	.
COC(=O)[C@H](C(C)C)N(Cc1ccccc1)S(=O)(=O)CCN1CCCC1	1.3%	2%	-6%	i	7%	-25%	6%	-5%
COCCOc1cc(N)c(Cl)cc1Cl	0.6%	-5%	21%	i	?	-25%	-23%[11.3 µM]	1%
O=c1ccc(NS(=O)(=O)c2ccc(Cl)cc2)cn1Cc1ccc(Cl)c(Cl)c1	1.7%	?	-12%	i	?	-2%	-12%	?
CCOC(=O)N1CCN(C(c2cc3ccccc3o2)c2nnnn2C(C)(C)C)CC1 (stereo unspecified)	-0.8%	.	.	i	.	.	2%	.
CCCCCc1ccc(CC(=O)N2CCOCC2)cc1	2.5%	26%	-22%	i	-10%	-30%	-8%	-9%
Cc1ccc(C2(c3noc(CN4CCOCC4)n3)CCCC2)cc1	0.2%	0%	-6%	i	-9%	1%	.	7%
COc1ccc(N2C(=O)C(F)(F)C2c2ccccc2F)cc1 (stereo unspecified)	-0.8%	-3%	-7%	i	14%	-26%	.	13%
COc1ccc(-c2c(NCCc3ccccc3)c(=O)c2=O)cc1	-1.6%	9%	4%	i	0%	-1%	-4%	3%
C/C(CC(=O)NCC(C)C)=N\NC(=O)COc1cc(C)c(Br)cc1Br	0.2%	-2%	-3%	i	0%	-10%	-20%	-1%
O=C(CC1C(=O)NCCN1Cc1c(F)cccc1Cl)NCCC1=CCCCC1 (stereo unspecified)	-1.8%	8%	-10%	i	-12%	-8%	.	-15%
COC(=O)c1sccc1NC(=O)c1c(Cl)cnn1C	?	0%	25%	i	7%	4%	-8%	1%
COc1ccc(S(=O)(=O)Nc2cc(C)cc(C)n2)c2ccccc12	-0.6%	10%	0%	i	-36%	-5%	-1%	-2%
CCC1(C)Cc2ccccc2-c2c1c(=O)n(-c1ccc(C)cc1)c1nnnn21 (stereo unspecified)	0.0%	2%	3%	i	12%	6%	.	4%
Cc1cccc(C)c1NC(=O)Cn1nc(-c2ccccc2)nc1-c1ccccc1	-0.3%	10%	7%	i	-17%	-15%	-9%	10%
CC(C)N1CCc2c(sc(NC(=O)CCc3ccccc3)c2C(N)=O)C1	0.2%	?	-12%	i	8%	-20%	-28%	1%
COc1cccc2cc(C(=O)CS(=O)(=O)c3ccc(C)cc3)c(=O)oc12	3.5%	?	11%	i	-5%	-35%	.	0%
Cc1ccc(NCc2nnc(SCC(=O)NCc3ccco3)n2CC2CCCO2)c(C)c1 (stereo unspecified)	-0.2%	4%	-17%	i	1%	-18%	8%	1%
O=C(CSc1ncnc2c1cnn2-c1ccc(F)cc1)NCc1ccc2c(c1)OCO2	0.1%	10%	20%	i	1%	10%	6%	3%
COc1ccc(Nc2n[nH]c(N)c2C(N)=O)cc1	-0.1%	-4%	21%	i	21%	-10%	.	12%
Cc1ccc(N(Cc2ccc([N+](=O)[O-])cc2)C(=O)c2ccco2)cc1C	3.9%	-2%	-1%	i	-1%	-10%	-5%	-1%
CCOC(=O)C1Oc2ccccc2C(c2ccc(C)cc2)=C1C(=O)OC (stereo unspecified)	6.6%	?	-11%	i	-6%	-22%	-14%	11%
O=C(O)c1cnc(-c2ccccc2)nc1Sc1ccc(Cl)cc1Cl	3.0%	?	9%	i	-3%	-1%	-7%	4%
COc1ccccc1CCNC(=O)C1CCN(C(=O)/C=C/c2ccccc2)CC1	2.6%	4%	3%	i	?	3%	35%	-7%
Cc1cccc2cc(CN(Cc3ccco3)C(=O)c3ccncc3)c(=O)[nH]c12	6.9%	-7%	-9%	i	-16%	-2%	-2%	-2%
COCCN(CCOC)Cc1cc(=O)oc2cc(OC)c(Cl)cc12	-0.9%	.	-10%	i	.	-52%	0%	.
CCCCNC(=O)c1onc(CCl)c1C(=O)OC	1.3%	?	-34%	i	-7%	-6%	1%	-8%
CC(=O)N1CCc2cc(C(=O)CN3CCC(C)CC3)ccc21	3.7%	-1%	12%	i	11%	5%	-15%	-6%
COc1cccc(Cn2cnc(-c3ccccc3OC)c2C2CC2)c1	-0.5%	.	.	?	.	.	?	.
CCCCNC(=O)C1(C)CCCCN1Cc1ccc2ccccc2c1 (stereo unspecified)	7.0%	.	?	i	.	-5%	-24%	.
CCc1ccccc1NC(=O)Nc1cc(F)ccc1F	5.6%	-1%	-1%	?	?	6%	.	-4%
O=C(O)c1cnc(-c2ccccc2)nc1Sc1ccc(Cl)cc1	-0.3%	5%	-7%	i	-16%	-18%	3%	-13%
O=C(C1CC1)N1CCc2sccc2C1c1ccc(Cl)cc1 (stereo unspecified)	0.9%	12%	-13%	i	?	-24%	-25%	15%
